Polio RdRp inh – poliovirus RNA polymerase inhibition; poliovirus polymerase elongation, fluorescence polarization; active compounds read low; P03300; actives 0.66% (n = 150,000); % elongation, % (compound at 16.7 µg/mL); in the data active means % elongation below about 90%; further: some results filed as inactive read as strong as hits
Target sequence (P03300 1749-2209 limits assumed): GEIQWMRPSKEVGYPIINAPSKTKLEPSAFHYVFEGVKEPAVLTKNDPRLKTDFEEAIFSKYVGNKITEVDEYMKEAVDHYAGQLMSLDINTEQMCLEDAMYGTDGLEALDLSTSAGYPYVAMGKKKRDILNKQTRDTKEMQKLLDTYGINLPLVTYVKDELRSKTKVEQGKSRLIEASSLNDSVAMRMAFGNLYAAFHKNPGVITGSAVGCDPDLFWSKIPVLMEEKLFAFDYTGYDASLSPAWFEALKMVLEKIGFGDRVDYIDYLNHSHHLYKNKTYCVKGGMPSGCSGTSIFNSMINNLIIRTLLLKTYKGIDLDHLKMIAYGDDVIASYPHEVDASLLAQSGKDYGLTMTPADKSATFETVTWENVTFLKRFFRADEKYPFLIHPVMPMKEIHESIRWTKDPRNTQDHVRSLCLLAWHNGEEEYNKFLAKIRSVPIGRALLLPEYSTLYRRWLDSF
Polio RdRp inh intensity – also measured in Polio RdRp inh; calls as there; % elongation; measured here: total intensity read-out; formula for this scale not given here;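 total fluorescence in place of polarization; lower means less elongation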
The depositor's hits bear a star. An excerpt. The share of hits here may be higher or lower than overall.

SMILES	Polio RdRp inh	Polio RdRp inh intensity
COc1ccc(OC)c(N(CC(=O)NCc2ccccc2)S(=O)(=O)c2ccccc2)c1	106	110
CC(=O)c1ccc(N2CCN(C(=O)C3CCCN(S(=O)(=O)c4ccc(Br)s4)C3)CC2)cc1 (stereo not given)	107	108
Cc1ccc(-c2[nH]c3ccccc3c2SCCNC(=O)c2ccc(S(=O)(=O)N(C)C)cc2)cc1	103	106
CCOC(=O)c1cnn(-c2cccc(Cl)c2)c1C1CCN(C(=O)OC(C)(C)C)CC1	113	112
Cc1ccc(NC(=O)c2nnn(Cc3cccc(C(F)(F)F)c3)c2N)c(C)c1	110	109
COc1ccc2c(c1)CC(C(=O)NCCCN1CCN(c3ccccc3F)CC1)CO2 (stereo not given)	110	114
COc1ccc(-n2nnnc2C2CCN(S(=O)(=O)c3ccc(C)cc3)CC2)cc1	110	100
COc1ccc(NC(=O)C2COc3ccccc3C2)cc1Cl (stereo not given)	108	110
COc1ccc(-c2noc(-c3ccc(NCc4ccc(C)cc4)c([N+](=O)[O-])c3)n2)cc1OC	105	108
Cn1ccc2c(OCC(=O)Nc3ccc(OC(F)(F)F)cc3)cccc2c1=O	108	109
CCCSc1ncc(Cl)c(C(=O)N2CCN(c3cccc(Cl)c3)CC2)n1	102	100
O=C(Nc1nnc(S(=O)(=O)N2CCOCC2)s1)c1ccccc1F	112	110
Nc1ncc(S(=O)(=O)Nc2ccc(F)cc2F)cn1	109	112
CCCN1CCN(CCCNC(=O)c2ccc3c(c2)sc2nc(-c4ccc(OCC)cc4)cn23)CC1	107	92
Cc1cccc(C)c1Nc1c(-c2ccccc2F)nc2cccc(C)n12	88*	68*
Cc1cc(C)c(NC(=O)C(=O)NCC(c2cccnc2)N2CCN(Cc3ccccc3)CC2)c(C)c1 (stereo not given)	106	108
CC1CCCN(C(=O)c2cc3ccc4cccnc4c3[nH]2)C1 (stereo not given)	111	116
COc1cccc(C(=O)Nc2nnc(S(=O)(=O)N3CCCC3)s2)c1	109	112
CCOc1ccc(-n2c(SCC(N)=O)nc3c(oc4ccccc43)c2=O)cc1	104	108
CCS(=O)(=O)c1ncc(Cl)c(C(=O)N(Cc2ccccc2)Cc2ccco2)n1	117	115
COc1ccccc1NC(=O)C1=C(C)Nc2nc(SCc3ccccc3)nn2C1c1ccccn1 (stereo not given)	105	107
O=c1n(Cc2cccc(C(F)(F)F)c2)c2ccccc2c2nc(-c3ccccc3)nn12	108	111
CCOC(=O)c1cc(OC(=O)c2ccccc2C)n(-c2ccccc2)n1	105	107
COc1ccc(NC(C)=O)cc1NC(=O)c1cccn(Cc2ccccc2)c1=O	104	107
CCOC(=O)c1cn(CC(=O)Nc2cccc(Cl)c2C)nn1	105	111
Cc1ccc(CNc2nc3ccc(Cl)cc3n3nnnc23)cc1	110	114
CCN1C(=O)C2(c3ccccc31)c1c(oc3ccc(C)cc3c1=O)C(=O)N2CCCOC(C)C (stereo not given)	108	110
CCOC(=O)Cn1c(=O)c2c(nc3n2CCN3c2ccc(CC)cc2)n(C)c1=O	110	113
COc1ccc(-c2noc(C3CC(=O)N(c4ccccc4)C3)n2)c(OC)c1 (stereo not given)	108	117
Cn1nnnc1SCCNCc1ccc(F)cc1	109	117
COC(=O)C1CCN(c2csc3ccc(C)cc3c2=O)CC1	106	109
COc1ccc(NC(=O)c2cnc(N3CCCC3)nc2)cc1OC	108	110
COc1ccc(-c2onc(C)c2C)cc1S(=O)(=O)N1c2ccccc2CC1C (stereo not given)	108	115
CC(C)C(=O)Nc1nnc(S(=O)(=O)N2CCCCCC2)s1	108	112
CC(C)(C)c1ccc(C(=O)Nc2ccc(OCc3cc(=O)n4ccsc4n3)cc2)cc1	113	114
COc1ccc(Nc2c3c(nc4ccccc24)CCC3)cc1Cl	103	103
COc1cccc(C2C(C(=O)Nc3ccccc3OC)=C(C)Nc3nc4ccccc4n32)c1 (stereo not given)	107	111
CC1CCN(S(=O)(=O)N2CCC(C(=O)NCc3ccccc3Cl)CC2)CC1	110	113
O=C(C1CCN(c2nc3ccccc3[nH]2)CC1)N1CCN(c2ccccc2)CC1	115	113
Cc1ccc(CN2CCN(C3CCN(S(=O)(=O)N(C)C)CC3)C(=O)C2=O)cc1	98	105
Cc1ccc(-n2c3c(c(=O)[nH]c2=O)C(NC(=O)c2ccccc2F)(C(F)(F)F)C(=O)N3)cc1C (stereo not given)	105	109
Cc1ccc(NC(=O)c2cc(-c3cccs3)on2)cc1C	104	105
Cc1noc(C)c1S(=O)(=O)N(CC(=O)NCc1ccccc1)c1ccc(C(C)C)cc1	107	110
COc1ccc2c(c1)c1c(c(=O)n(-c3cccc(C)c3)c(=O)n1CC(=O)NCC1CCCO1)n2C (stereo not given)	98	95
N#CC1=C2SCN(C3CCCCC3)CN2C(=O)CC1c1ccc(Br)cc1 (stereo not given)	95	97
O=C(c1ccccc1Cl)N1CCC(c2nc3ccccc3s2)CC1	112	107
Cc1ccc(Cl)cc1NC(=O)CCn1cnc2ccccc2c1=O	98	100
CCS(=O)(=O)c1ncc(Cl)c(C(=O)NCc2ccc(OC)cc2)n1	104	107
COc1ccc(Nc2ncc(C(=O)N3CCN(c4ccccc4OC)CC3)c3ccccc23)cc1	105	106
CCC1CCCCN1CCCNC(=O)c1c(O)nc2c(C)cccn2c1=O (stereo not given)	104	109
Other structures
SMILES	Polio RdRp inh	Polio RdRp inh intensity
Cc1ccccc1OC(=O)c1cc(-c2ccc3c(c2)OCCO3)on1	102	105
CCc1ccc(Cn2nnc3c(=O)[nH]c(C4CCCN(C(=O)c5cccc(Cl)c5)C4)nc32)cc1 (stereo not given)	99	102
O=C(NCCc1ccc(Cl)cc1)C1CCN(S(=O)(=O)c2ccc3[nH]ccc3c2)CC1	108	111
CCOc1ccc(CN(CCc2ccc3c(c2)OCO3)Cc2cc(OC)cc(OC)c2)cc1	101	99
CC1CCN(Cc2c(O)ccc3c(=O)c(-c4ccc(Cl)cc4)c(C(F)(F)F)oc23)CC1	108	112
CCCSCCCNC(=O)c1sc2nc(C)cc(C)c2c1-n1cccc1	106	107
Cc1ccccc1Nc1nc(N)c(C(=O)c2ccccc2Cl)s1	104	107
O=C(CSc1ccccc1)NCc1ccc2c(c1)CCN2C(=O)c1ccc(Cl)cc1	104	96
Cc1cc2[nH]c(=O)c(=O)[nH]c2cc1S(=O)(=O)NCc1ccc(F)cc1	111	100
Cc1oc2ncn(C)c(=O)c2c1C(=O)N(C)c1ccccc1F	111	112

A run of entries of the results above, as a working copy:
SMILES	Polio RdRp inh	Polio RdRp inh intensity
Cc1noc(C)c1S(=O)(=O)N(CC(=O)NCc1ccccc1)c1ccc(C(C)C)cc1	107	110
COc1ccc2c(c1)c1c(c(=O)n(-c3cccc(C)c3)c(=O)n1CC(=O)NCC1CCCO1)n2C (stereo not given)	98	95
N#CC1=C2SCN(C3CCCCC3)CN2C(=O)CC1c1ccc(Br)cc1 (stereo not given)	95	97
O=C(c1ccccc1Cl)N1CCC(c2nc3ccccc3s2)CC1	112	107
Cc1ccc(Cl)cc1NC(=O)CCn1cnc2ccccc2c1=O	98	100
CCS(=O)(=O)c1ncc(Cl)c(C(=O)NCc2ccc(OC)cc2)n1	104	107
COc1ccc(Nc2ncc(C(=O)N3CCN(c4ccccc4OC)CC3)c3ccccc23)cc1	105	106
CCC1CCCCN1CCCNC(=O)c1c(O)nc2c(C)cccn2c1=O (stereo not given)	104	109
Cc1ccccc1OC(=O)c1cc(-c2ccc3c(c2)OCCO3)on1	102	105
CCc1ccc(Cn2nnc3c(=O)[nH]c(C4CCCN(C(=O)c5cccc(Cl)c5)C4)nc32)cc1 (stereo not given)	99	102
O=C(NCCc1ccc(Cl)cc1)C1CCN(S(=O)(=O)c2ccc3[nH]ccc3c2)CC1	108	111
CCOc1ccc(CN(CCc2ccc3c(c2)OCO3)Cc2cc(OC)cc(OC)c2)cc1	101	99
CC1CCN(Cc2c(O)ccc3c(=O)c(-c4ccc(Cl)cc4)c(C(F)(F)F)oc23)CC1	108	112
CCCSCCCNC(=O)c1sc2nc(C)cc(C)c2c1-n1cccc1	106	107
Cc1ccccc1Nc1nc(N)c(C(=O)c2ccccc2Cl)s1	104	107

Next compounds follow.
SMILES	Polio RdRp inh	Polio RdRp inh intensity
Cc1ccc(NC(=O)c2sc(-n3nc(C)c(Cc4ccc5c(c4)OCO5)c3C)nc2C)cc1Cl	104	96
O=C(NCCCc1ccccc1)c1nn(-c2ccccc2)nc1CO	102	106
COc1cc(OC)c(NC(=O)N2CCC(CN3CCOCC3)CC2)cc1Cl	112	114
CSc1nc2c([nH]c3ccccc32)c(=O)n1-c1ccc(F)cc1	117	111
COc1cccc(NC(=O)Cn2c(=O)ccc3cc(S(=O)(=O)N4CCC(C)CC4)ccc32)c1	106	111
O=c1cc(-c2ccc(F)cc2)nc(SCc2nc(-c3cccc(Cl)c3)no2)[nH]1	103	108
Cn1cnc(S(=O)(=O)N2CCCC(C(=O)NCc3ccc(F)cc3)C2)c1 (stereo not given)	109	112
CC(=O)c1cccc(-n2c(CCC(=O)O)ccc2-c2ccccc2)c1	100	103
COc1ccccc1NCc1nnc2n1CCCCC2	104	100
CSc1cccc(NC(=O)CN(C)S(=O)(=O)c2ccc3c(c2)CCCN3C(C)=O)c1	109	117
CCC(=O)N1CCc2cc(CNC(=O)C(CC)c3ccccc3)ccc21 (stereo not given)	110	104
O=C(CC1C(=O)N(c2ccccc2)C(=O)N1CCc1cccs1)Nc1ccc(Cl)cc1 (stereo not given)	106	107
CCN(CC)c1ccc(NC(=O)C2CCCN(S(=O)(=O)c3ccc4c(c3)oc(=O)n4C)C2)c(C)c1 (stereo not given)	109	106
CCOC(=O)c1[nH]c2c(c1Cc1ccccc1C)C(=O)CC(c1cc(OC)ccc1OC)C2 (stereo not given)	103	103
CCOC(=O)c1cccc(NC(=O)CCS(=O)(=O)c2ccc3c(c2)CCN3C(=O)CC)c1	112	111
CCOc1ccccc1CNC(=O)CCCn1ccc2cc(S(=O)(=O)N3CCCC3)ccc21	111	109
CCN1C(=O)c2ccccc2S(=O)c2ccc(C(=O)N3CCN(c4cccc(C)c4)C(C)C3)cc21 (stereo not given)	107	100
COc1ccc(CNC(=O)C(=O)NCC(c2cccs2)S(=O)(=O)c2cccs2)cc1 (stereo not given)	103	103
COc1ccc(-n2c(=O)c3c4c(sc3n(Cc3cc(C)ccc3C)c2=O)CN(C(C)=O)CC4)c(OC)c1	102	106
COc1ccc(C(=O)Nc2ccccc2C(=O)OCc2cc(=O)n3nc(C4CC4)sc3n2)cc1	105	107
CCCCNC(=O)C(CC)Sc1nnc(-c2ccc(F)cc2)c(-c2ccc(F)cc2)n1 (stereo not given)	109	117
COc1ccc(C)cc1NC(=O)c1cc2c(=O)n3cccc(C)c3nc2s1	99	102
Clc1ccc(-c2noc3ncnc(NC4CCCCC4)c23)cc1	105	104
CN(C)c1ccc(CNC(=O)c2ccc3nc(CCc4ccccc4)oc3c2)cc1	101	98
CC(C)(C)c1ccc(OCCSc2nc(-c3cccs3)nc3cc(=O)[nH]n23)cc1	109	106
Cc1c(C(=O)NCc2cccc(Cl)c2)sc2nc3n(c(=O)c12)CCC3	105	97
Cc1ccc2c(=O)c(C(=O)c3ccccc3)cn(CC(=O)Nc3ccc(C)c(Cl)c3)c2n1	114	122
COC(=O)c1ccc(NC(=O)Cc2coc3cc(C)ccc23)cc1	116	112
O=C(NCCS(=O)(=O)N1CCN(c2ccccc2)CC1)C1CC(=O)N(c2ccc(F)cc2)C1 (stereo not given)	105	114
Cn1c(SCc2ccc(F)cc2)nc2ccc(C(=O)NCc3ccc(Cl)cc3)cc21	104	107
COc1cc(NC(=O)c2cn(C3CCCC3)c(=O)c3c2c2ccccc2n3C)cc(OC)c1OC	115	116
Cc1ccc(CSCCC(=O)N2CCN(c3cc(C)ccc3C)CC2)cc1	116	118
Cc1ccc(C)c(S(=O)(=O)n2nc(C)c(S(=O)(=O)N3CCC(C)CC3)c2C)c1	101	97
COCCCN1C(=O)c2[nH]nc(-c3ccccc3O)c2C1c1ccc(OC)cc1 (stereo not given)	107	111
Cn1c(CNC(=O)CSc2n[nH]c(-c3ccccc3)n2)nc2ccccc21	102	109
CC(=O)N1c2ccccc2C(=O)C1N1CCN(c2cccc(Cl)c2)CC1 (stereo not given)	114	114
CC(NC(=O)c1cccc(NC(=O)c2nsc3ccccc23)c1)c1ccccc1 (stereo not given)	102	99
Cc1ccccc1CNC(=O)c1ccc(CN2CC(=O)N3CCCCC3C2=O)cc1 (stereo not given)	108	101
COc1ccc(CC(=O)Nc2sc3c(c2C(=O)Nc2ccc(C)cc2)CCCCC3)cc1	89*	89*
COC(=O)c1cnc(NCc2ccc(F)cc2)c2ccccc12	106	102
COc1ccc(-c2ccc(NS(=O)(=O)c3ccc(C(C)=O)cc3)cc2)nn1	98	102
CCOC(=O)c1ccc(NC(=O)c2cn3c4c(ccc(Cl)c4c2=O)OC(C)C3)cc1 (stereo not given)	108	109
CC1Cn2c(C(=O)NCCc3ccc(Cl)cc3)cc3cccc(c32)S1 (stereo not given)	112	111
Cc1ccc(NC(=O)CN2C(=O)CSc3ccc(S(=O)(=O)N(C)C)cc32)c(C)c1	104	113
Cc1ccc2onc(CC(=O)N3CCN(c4ccc(Cl)cc4)CC3)c2c1	107	111
Cc1cccn2c3c(c(=O)nc12)C(c1cccc(F)c1)CC(=O)N3 (stereo not given)	101	105
O=C(CCCCCn1c(=O)c2sccc2n(Cc2ccc(Cl)cc2)c1=O)NCc1ccc2c(c1)OCO2	111	110
CCOc1ccc(NC(=O)CC2C(=O)N(c3ccc(C)cc3)C(=O)N2CCC2=CCCCC2)cc1 (stereo not given)	110	107
O=C(CN1C(=O)COc2ccc(S(=O)(=O)N3CCCCC3)cc21)NCc1ccc(Cl)cc1	113	110
Cc1ccc(CSCc2ccc(C(=O)NCCc3ccc(Cl)cc3)o2)cc1	109	110
O=C1C2=C(Nc3ccccc3SC2c2ccc(C(F)(F)F)cc2)c2ccccc21 (stereo not given)	111	115
O=C(NCc1ccccc1Cl)C1=Cc2cc(Br)ccc2OC1	111	97
